# Compound activity from PubChem BioAssay.
# Mtb bLac sens: beta-lactam sensitization of Mtb H37Rv; M. tuberculosis H37Rv growth with meropenem, percent inhibition; hits of this screen are not shown here; inhibition, % at 25 µM; 0.27% of 330,000 active; AID 434955;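 active = about 74% or more and at least 40 points above the plate without the antibiotic, then above 30% in a dose series; inconclusive = first-round hits that could not be retested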;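 also: growth measured after seven days incubation then overnight dye step; 0% = bacteria only wells and 100% = bacteria with antibiotic; twin plates without the antibiotic show which effects depend on it; some results filed as inactive read as strong as hits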
# Mtb H37Rv: M. tuberculosis H37Rv growth inhibitors, H37Rv strain (AID 1626); M. tuberculosis H37Rv growth inhibition; higher % means a stronger effect; one-dose inhibition, % at 10 µM; IC50 in µM for titrated hits; 0.95% of 220,000 active;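 active = confirmed in a dose series; inconclusive = inhibition above 80% but not taken into the dose series; inactive = below 80% or under 30% at every dose of the series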;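 also: bacteria incubated seven days before Alamar blue readout; 0% = bacteria only wells and 100% = bacteria with antibiotic wells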
# YopH PTP inh: inhibitors of Yersinia enterocolitica YopH tyrosine phosphatase; fluorescence Ex485/Em525; inhibition, %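 (about 10 µM by stock and volumes)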; 0.16% of 140,000 active;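 active = inhibition of 50% or more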;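 also: controls were vehicle for no effect and minimum signal wells for full effect; inactives centre near -20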
# RecA splice inh: blocks M. tuberculosis RecA intein splicing; inhibition, %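 (about 9 µM by stock and volumes)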; P9WHJ3; 0.75% of 290,000 active; cell-free RecA intein splicing, fluorescence; in the data active = inhibition above about 30%; inconclusive = no clear call, values can overlap the other calls;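 also: 0% = vehicle wells and 100% = reference inhibitor control wells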
# Target sequence (P9WHJ3 whole entry, looked up, canonical isoform): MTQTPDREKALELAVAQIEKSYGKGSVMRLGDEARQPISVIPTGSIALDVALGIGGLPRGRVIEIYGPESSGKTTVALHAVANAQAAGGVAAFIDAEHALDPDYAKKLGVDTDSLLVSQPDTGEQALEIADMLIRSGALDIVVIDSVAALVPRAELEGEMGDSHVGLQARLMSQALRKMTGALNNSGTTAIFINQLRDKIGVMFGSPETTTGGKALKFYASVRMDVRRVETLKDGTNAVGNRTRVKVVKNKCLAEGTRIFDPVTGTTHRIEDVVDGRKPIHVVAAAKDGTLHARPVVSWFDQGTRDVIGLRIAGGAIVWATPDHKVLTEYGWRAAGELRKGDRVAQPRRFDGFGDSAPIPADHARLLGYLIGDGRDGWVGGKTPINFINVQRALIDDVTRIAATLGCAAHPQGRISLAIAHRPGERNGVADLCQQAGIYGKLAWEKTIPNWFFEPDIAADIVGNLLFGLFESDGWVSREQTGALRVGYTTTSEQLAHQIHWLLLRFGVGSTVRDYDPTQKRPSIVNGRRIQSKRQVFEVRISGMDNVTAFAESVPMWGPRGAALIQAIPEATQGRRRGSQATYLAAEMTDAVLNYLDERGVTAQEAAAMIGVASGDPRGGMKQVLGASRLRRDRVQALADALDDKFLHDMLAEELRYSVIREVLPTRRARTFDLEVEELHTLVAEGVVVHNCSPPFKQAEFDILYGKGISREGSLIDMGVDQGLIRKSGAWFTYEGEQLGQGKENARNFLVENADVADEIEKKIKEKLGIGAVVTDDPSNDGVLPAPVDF
# Arbovirus inh: antivirals against arbovirus infection; arbovirus infection cell-based antiviral screen; inhibition, % at 10 µM; 0.37% of 200,000 active; AID 1251;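 active = inhibition from about 30%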;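 also: bluetongue infection of BSR cells; cell survival read as ATP light after 72 h; 0% = infected wells without compound and 100% = uninfected wells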
# Arbovirus inh repeat: also measured in Arbovirus inh; calls as there; inhibition, %; measured here: 10K subset replicate screen; many hits read low in the repeat;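 first of two repeat runs on a subset; 0% = infected and 100% = uninfected wells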
# The depositor's hits bear a star; ? = inconclusive; . = no result given. Some of the compounds tested. The share of hits here may be higher or lower than overall.
SMILES,Mtb bLac sens,Mtb H37Rv,YopH PTP inh,RecA splice inh,Arbovirus inh,others
CCC1Sc2ccccc2N(CC(=O)NCc2ccccc2OC)C1=O (stereo unspecified),2,-5%,-120,-0.6,-1,
C=CCn1c(-c2ccccc2)cc(SC)c(C#N)c1=O,6,1%,.,-1.9,-8,
O=C(NC1CCCCC1)C(c1ccc2ncccc2c1)N(Cc1ccc(F)cc1)C(=O)c1ccc2c(c1)OCCO2 (stereo unspecified),98,.,-28,5.0,-20,
O=C(O)c1ccccc1S(=O)(=O)NCC(O)COc1ccc(Br)cc1 (stereo unspecified),-3,-2%,-4,0.5,4,Arbovirus inh repeat=4
O=C(CN1CCCN(Cc2ccc(F)cc2Cl)C1=O)NC1CCCCCC1,-1,0%,-12,0.5,-2,
N#Cc1ccccc1NC(=O)Nc1ccccc1,-4,0%,.,-4.7,1,
O=C(NCc1ccco1)c1ccc(C(F)(F)F)cc1,-5,-4%,.,-2.8,1,
O=C(O)CCCn1cc(NC(=O)c2ccc(F)cc2)cn1,3,5%,.,2.3,1,
CCOc1ccc(-c2cc(CCCC(=O)NCc3ccc(C)cc3)no2)cc1,2,.,-24,1.8,-8,
COc1ccccc1C(=O)C1CCCN(C(=O)c2cccc(-n3cccn3)c2)C1 (stereo unspecified),-6,3%,.,2.0,10,
C=CCN(CC=C)C(=O)C1CCN(S(=O)(=O)c2ccc(N3CCCC3=O)cc2)CC1,5,.,.,-6.3,.,
COc1ccccc1/C=N/NC(=Nc1ccc(C)cc1)c1nc2ccccc2s1,1,.,-8,2.3,-8,
CC1=CC(C)(C)NC(=S)N1c1cccc(C)c1,2,-1%,1,16,9,
COc1ccc(C(=O)NCC(=O)OCC(=O)N2CCc3ccccc32)cc1,6,-8%,.,1.0,6,
O=S(=O)(Nc1c(O)ccc2ccccc12)c1ccc(F)cc1,2,.,.,95*,.,
C[C@@H]1C(=O)O[C@H]2C[C@@]34[C@H]5C[C@@H](C(C)(C)C)[C@]36[C@@H](OC(=O)[C@@H]6O)O[C@@]4(C(=O)O5)[C@]21O,-4,.,.,-0.2,.,
CCOC(=O)c1cc(-c2ccc(F)cc2)nc2c1c(=O)[nH]c(=O)n2Cc1ccccc1,1,.,.,0.2,.,
Cc1ccc(NS(=O)(=O)c2ccc3c(c2)NC(=O)CCS3)cc1C,4,.,.,1.6,.,
COc1ccc([C@@H]2[C@@H]3C(=O)N(C(C)(C)C)C(=O)[C@@H]3[C@]3(C)C(=O)N(c4ccc(C)cc4)C(=O)N23)cc1,-5,.,.,-1.2,.,
Cc1cc(F)c(F)c(C(=O)N2C(C)CCCC2C)c1Cl (stereo unspecified),5,2%,.,-2.1,3,
CC(=O)c1cccc(NC(=O)N2CCCC2C(=O)Nc2ccccc2C)c1 (stereo unspecified),-8,.,-24,0.3,-6,
CCN(CC)Cc1cc(CCNC(=O)c2ccc(Cl)cc2)ccc1O,-7,-7%,-16,-1.2,-3,
COc1ccc(OC(=O)CN2C(=O)C3C4CCC(C4)C3C2=O)cc1 (stereo unspecified),-6,6%,-33,-0.8,4,
Cc1cc(N/N=C/c2cccc(F)c2)nc(NCc2ccccc2)n1,37,7%,.,9.9,.,

# 3 entries already listed, arranged by count of non-hydrogen atoms, rising:
SMILES,Mtb bLac sens,Mtb H37Rv,YopH PTP inh,RecA splice inh,Arbovirus inh,others
Cc1cc(F)c(F)c(C(=O)N2C(C)CCCC2C)c1Cl (stereo unspecified),5,2%,.,-2.1,3,
Cc1ccc(NS(=O)(=O)c2ccc3c(c2)NC(=O)CCS3)cc1C,4,.,.,1.6,.,
COc1ccc(C(=O)NCC(=O)OCC(=O)N2CCc3ccccc32)cc1,6,-8%,.,1.0,6,

# Going on with the list.
SMILES,Mtb bLac sens,Mtb H37Rv,YopH PTP inh,RecA splice inh,Arbovirus inh,others
Fc1ccc(N2CCN(Cc3cn[nH]c3-c3ccccc3)CC2)cc1,-1,-14%,.,0.6,.,
CC(=O)N(c1ccc(C)cc1)c1nc(C)cc(C)c1C#N,-14,5%,.,4.0,.,
S=C(NCc1ccco1)N1CCN(Cc2ccc(Cl)cc2Cl)CC1,15,13%,-10,9.3,10,
CCOC(=O)c1cc2c(ccn2C)n1CC(=O)N1CCN(c2ccc(F)cc2)CC1,5,2%,-30,-1.9,11,
Cc1ccc(/C=C2\SC(=S)N(CC3CCCO3)C2=O)o1 (stereo unspecified),-4,-3%,.,25,.,
CC1CCN(c2nc(CN3CCCCC3)nc3scc(-c4ccccc4)c23)CC1,96,9.1µM*,-5,20,-41,
OCCNC(=S)NCCc1ccccc1,-6,15%,-8,0.6,2,
CCNC(=O)COC(=O)c1ccc(-n2nc(C)cc2C)cc1,17,-6%,.,-3.2,7,
O=C(CN1CCOCC1)NN1CC(=O)N(c2ccc(Cl)cc2)CC1=O,5,-15%,.,1.9,.,
COc1ccc(CCNC(=O)CSCc2ccc([N+](=O)[O-])cc2)cc1,-3,-2%,1,3.2,0,
CNC(=O)c1csc(-c2ccc(Cl)cc2)n1,5,39µM*,.,0.6,1,
O=C(CN1CCN(Cc2ccc(Cl)cc2)CC1)N/N=C/c1cccs1,-3,-1%,.,0.1,.,

# Already shown: an excerpt of the list.
SMILES,Mtb bLac sens,Mtb H37Rv,YopH PTP inh,RecA splice inh,Arbovirus inh,others
CCNC(=O)COC(=O)c1ccc(-n2nc(C)cc2C)cc1,17,-6%,.,-3.2,7,
O=C(CN1CCOCC1)NN1CC(=O)N(c2ccc(Cl)cc2)CC1=O,5,-15%,.,1.9,.,
COc1ccc(CCNC(=O)CSCc2ccc([N+](=O)[O-])cc2)cc1,-3,-2%,1,3.2,0,
CNC(=O)c1csc(-c2ccc(Cl)cc2)n1,5,39µM*,.,0.6,1,
O=C(CN1CCN(Cc2ccc(Cl)cc2)CC1)N/N=C/c1cccs1,-3,-1%,.,0.1,.,

# (continued)
SMILES,Mtb bLac sens,Mtb H37Rv,YopH PTP inh,RecA splice inh,Arbovirus inh,others
O=C(Nc1ccc2c(c1)OCO2)C(c1ccc(Cl)cc1)N1CCN(C(=O)c2ccco2)CC1 (stereo unspecified),-1,5%,-35,4.1,-9,
O=C(OCC(=O)N1CCCC1=O)c1cccc([N+](=O)[O-])c1,-14,.,.,2.6,.,
C=CCNCCCOc1ccc(C(C)(C)c2ccccc2)cc1,1,3%,-30,0.3,-35,
COc1ccc(COc2cccnc2N)cc1,1,0%,.,.,.,
COc1ccc(CCn2c(C)cc(C(=O)CSc3nnc(N)s3)c2C)cc1,25,.,-29,2.5,2,
COc1ccc(C2C(C(=O)N3CCN(c4ccccn4)CC3)CCC(=O)N2c2cc(OC)c(OC)c(OC)c2)cc1 (stereo unspecified),-10,-7%,.,-0.5,20,
CC(C)(C)c1cc2cccnc2n1Cc1ccccc1,-12,3%,17,3.7,-11,
COc1ccc(NC(=O)[C@@H](NC(=O)N2C[C@H]3C[C@@H](C2)c2cccc(=O)n2C3)C(C)C)cc1OC,-8,.,.,5.1,.,
Cc1ccc(Nc2cc(C)c3ccc(O)cc3n2)cc1C,35,18%,.,0.7,.,
Cc1ccc(N(CC(=O)NCc2ccncc2)S(C)(=O)=O)cc1Cl,-10,-6%,-29,1.4,-1,
CCC(=O)N1c2ccc(S(=O)(=O)N3CCN(c4ccccc4Cl)CC3)cc2CC1C (stereo unspecified),-6,.,.,5.1,.,
CSc1ccc(C(=O)C2CCCN(C(=O)CCn3cncn3)C2)cc1 (stereo unspecified),?,.,.,0.8,.,
CCOC(=O)C1CCN(S(=O)(=O)c2cccc(-c3cn4cccc(C)c4n3)c2)CC1,4,2%,-34,.,-1,
CCOC(=O)c1cnc(-c2ccccc2)nc1Oc1ccc(Cl)c(Cl)c1,2,14%,-30,2.0,-8,
CCN(CC)S(=O)(=O)c1ccc2oc(SCC(=O)NCc3ccccc3)nc2c1,-3,-3%,-12,3.8,8,
CC(=O)Nc1ccc2nc(NC(=O)c3ccco3)sc2c1,4,.,.,-1.0,.,
O=C(O)c1ccc(Nc2ccc3nonc3c2[N+](=O)[O-])cc1,1,.,.,1.7,.,
O=C(CF)NC(NC(=S)Nc1cccc([N+](=O)[O-])c1)C(Cl)(Cl)Cl (stereo unspecified),-2,10%,.,2.5,2,
COc1ccc(Nc2nc3ccccc3c(=O)[nH]2)cc1,0,-2%,.,-1.4,.,
Cc1ccccc1NS(=O)(=O)c1cc(C(=O)Nc2ccccc2-c2ccccc2)ccc1Cl,11,5%,-25,10.0,6,
CC(C)(C)NC(=O)COC(=O)C1c2ccccc2Oc2ccccc21,1,.,.,2.3,.,
CCC(=NCc1ccco1)c1c(O)n(Cc2ccccc2)c(=O)[nH]c1=O,-4,7%,-38,4.3,4,
CCOC(=O)c1cnn(-c2c(Cc3ccccc3)c(C)nc3c(-c4ccccc4)c(C)nn23)c1N,-4,6%,-6,4.1,6,
Cc1ccc(CC(=O)c2ccc(Cl)cc2)cc1,-4,.,.,-0.4,.,

# Brought forward from above: three entries; new compounds follow.
SMILES,Mtb bLac sens,Mtb H37Rv,YopH PTP inh,RecA splice inh,Arbovirus inh,others
CCC(=NCc1ccco1)c1c(O)n(Cc2ccccc2)c(=O)[nH]c1=O,-4,7%,-38,4.3,4,
CCOC(=O)c1cnn(-c2c(Cc3ccccc3)c(C)nc3c(-c4ccccc4)c(C)nn23)c1N,-4,6%,-6,4.1,6,
Cc1ccc(CC(=O)c2ccc(Cl)cc2)cc1,-4,.,.,-0.4,.,
CCOc1c(Br)ccc2c1sc1nc[nH]c(=O)c12,58,13%,-27,-2.5,19,
CC(C)CCN1CCN(Cc2cccc(C(F)(F)F)c2)CC1CCO (stereo unspecified),7,3%,.,1.1,-16,
O=C(OCc1cc(=O)oc2cc(O)ccc12)c1cc(S(=O)(=O)N2CCOCC2)ccc1F,4,.,.,-8.2,.,
Cc1ccc(CN(C(=O)C(F)(F)F)C(C(=O)NC2CCCCC2)c2ccco2)cc1 (stereo unspecified),-1,2%,-15,-1.9,-20,
CC(CC(=O)Nc1ccc(F)cc1F)S(=O)(=O)c1ccc2c(c1)NC(=O)CO2 (stereo unspecified),6,.,.,-0.5,.,
O=S(=O)(NCCCN1CCOCC1)c1ccc2c(c1)OCCO2,0,-1%,.,.,1,
Cc1ccc(C(=O)OCC(=O)N(C)c2c(N)n(Cc3ccccc3)c(=O)[nH]c2=O)s1,-3,.,.,-1.6,.,
Cc1cc2cc(OCC(=O)O)ccc2n1C,11,-4%,29,-2.9,-6,
